TRPML1 agonist: human mucolipin-1 channel agonism; TRPML1-expressing cells, Ca2+ dye fluorescence, FDSS; host cell line not named in the record; reference of the full effect not given here; activation, % (test concentration not listed); 410,000 compounds, 0.12% hits; in the data active = activation above about 50%; inconclusive = about 30% to 50%; inactive = below about 30%; also: 0% is about no effect; the text of the record puts the active cut at 80%
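TRPML1-DL cells, Tet-induced overnight (~16 h, 37 degrees C), loaded 45-90 min at room temperature with Ca8 no-wash calcium dye plus quencher. FDSS fluorescence: 10 s baseline, compound pin-transfer, 110 s agonist read, then EC80 54-4 (4uM final) and 110 s antagonist read.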
Menin-MLL FL inh: displaces fluorescein MLL peptide from human menin. 290,000 tested, under 10 active. FP activity change, % at 61.4 µM. Fluorescence polarization, fluorescein-MLL peptide displacement from menin; inconclusive = falling polarisation curve, or a change in total fluorescence; inactive = total fluorescence flat and polarisation flat or rising; no compound was filed as active; the % refers to the polarisation; negative = inhibition;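 also: % of control where 0% means no effect; inhibitors lower the polarisation; unlabelled MLL peptide was the positive control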
ClpP mod: qHTS Assay for Activators of ClpP; ATP-dependent Clp protease proteolytic subunit (Bacillus subtilis (strain 168)), P80244; purified B. subtilis ClpP, FRET peptide cleavage, 20 min; Potency, µM (titrated, usually from 57.5 µM), inactives show at the highest dose activity change, negative = active; 340,000 compounds, 1.9% hits; AID 651965, 2013; active = well fitted falling curve with a large enough effect; inconclusive = small, poorly fitted or top-dose-only effect; inactive = no such curve, though single readings can be large or run the other way; also: potency is read from the fitted curve at half-maximal effect; the source files actives as falling curves though it sought activators and does not explain the sign; nearly all actives have a fitted effect of over 65% in size; many hits overshoot -100%
Target sequence (P80244 whole entry, looked up): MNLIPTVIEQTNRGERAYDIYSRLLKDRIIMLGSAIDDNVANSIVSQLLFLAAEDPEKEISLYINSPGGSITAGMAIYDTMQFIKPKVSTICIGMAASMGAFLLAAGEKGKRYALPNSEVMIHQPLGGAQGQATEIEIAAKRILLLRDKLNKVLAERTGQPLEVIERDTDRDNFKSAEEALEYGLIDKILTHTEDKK
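FRET quenching reversal measured ClpP activation: 10 microg/mL B. subtilis ClpP at pH 8 with the FRET-FV decapeptide, read at 430 nm after 320 nm excitation. The 20-min minus 0-min signal was scaled between DMSO/no-enzyme wells and ADEP (5.8 microM final).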
Sfp PPTase inh: blocks B. subtilis Sfp PPTase activity; Q9F4F7; Biochemical Sfp PPTase activity, qHTS; Potency, µM, without a hit: max response, negative = inhibition, hits mostly inhibitors; 310,000 compounds, 3.5% hits; AID 1490; active = well fitted inhibition curve with a large enough effect; inconclusive = small, poorly fitted or top-dose-only effect, or another doubt; inactive = no such curve, though single readings can be large or run the other way;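 also: the enzyme is Sfp with the accession as filed and its product quenches rhodamine fluorescence; potency is read from the fitted curve at half-maximal effect; 0% = enzyme reaction without inhibitor and -100% = no enzyme wells; top concentration of the series not given in the record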
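Fluorescence-quenching assay: 15 nM Sfp-PPTase preincubated 15 min at room temperature with compound, then 5 uM rhodamine-CoA and 12.5 uM BHQ-2-labelled YbbR peptide added. Fluorescence (ex 525/em 598 nm) read at start and after 30 min; difference gives rate.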
PINK1 modulator: PINK1 expression modulation; PINK1 immunofluorescence, high-content cytometry, 24 h; 410,000 compounds, 0.2% hits; Potency, µM (top dose mostly 76.6 µM), inactives show top-dose activation (PINK1 increase), most hits filed as activators; active = well fitted activation curve with a large enough effect; inconclusive = small, poorly fitted or top-dose-only effect; inactive = flat fitted curve, though single readings scatter; cell line not stated here;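 also: potency is read from the fitted curve at half-maximal effect; % of control where 0% means no effect; nearly all actives have a fitted effect of over 65% in size; a mitochondrial uncoupler was the plate control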
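Fluorescence from anti-PINK1 antibody, together with nuclear and cell stains, was scanned on a laser-scanning cytometer. Before staining, stable-line cells were incubated 24 hours with compounds at 5 concentrations; primary antibody 12 h at 10 degrees C.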
TRPV1 PAM: potentiators of human vanilloid receptor 1 (TRPV1) | potentiation, % at 8.33 µM | TRPV1-expressing cells, Fluo-8 calcium influx, capsaicin EC20 potentiation; host cell line not named in the record; control for the full effect not named in the record | AID 540277 | 320,000 compounds, 0.02% hits; active means potentiation above 80%; inconclusive means 30% to 80%; inactive means below 30%; also: 0% is about no effect
Target sequence (Q8NER1 whole entry, looked up): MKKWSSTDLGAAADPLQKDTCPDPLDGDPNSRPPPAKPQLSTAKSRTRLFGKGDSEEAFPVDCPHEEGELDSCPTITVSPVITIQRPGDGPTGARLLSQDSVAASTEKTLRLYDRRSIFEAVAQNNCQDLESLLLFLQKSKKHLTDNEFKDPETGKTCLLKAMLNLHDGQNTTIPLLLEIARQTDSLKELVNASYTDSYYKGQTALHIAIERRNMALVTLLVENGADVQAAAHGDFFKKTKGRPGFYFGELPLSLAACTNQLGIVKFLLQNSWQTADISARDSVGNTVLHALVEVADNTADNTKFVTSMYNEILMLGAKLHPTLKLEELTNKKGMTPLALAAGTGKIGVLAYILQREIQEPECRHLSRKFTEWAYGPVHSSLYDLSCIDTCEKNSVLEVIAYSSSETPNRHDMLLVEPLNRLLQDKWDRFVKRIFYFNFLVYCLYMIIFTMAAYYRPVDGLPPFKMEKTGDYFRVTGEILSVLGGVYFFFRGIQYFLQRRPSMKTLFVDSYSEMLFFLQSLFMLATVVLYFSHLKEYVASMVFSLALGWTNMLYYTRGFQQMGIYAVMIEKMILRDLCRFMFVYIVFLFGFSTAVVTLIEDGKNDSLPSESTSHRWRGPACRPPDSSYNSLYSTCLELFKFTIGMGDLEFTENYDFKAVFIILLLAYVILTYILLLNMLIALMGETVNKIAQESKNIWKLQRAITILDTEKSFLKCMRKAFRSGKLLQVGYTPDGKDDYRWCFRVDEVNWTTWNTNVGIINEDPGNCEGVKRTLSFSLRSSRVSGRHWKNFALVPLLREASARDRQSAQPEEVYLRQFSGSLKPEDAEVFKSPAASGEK
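Cells expressing TRPV1 were dye-loaded with Fluo-8 and read kinetically: 10 s baseline, 3 min after compound (agonist portion), then 2 min after EC20 capsaicin (allosteric enhancer portion). Calcium-bound dye fluorescence at 480/520 nm.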
TRPML1 blocker: blocks the human TRPML1 channel; 390,000 compounds, 0.02% hits; TRPML1-inducible cells, Ca2+ dye fluorescence, FDSS; active compounds read low; inhibition of EC80 agonist-evoked calcium signal; activity change, negative = inhibition, % (test concentration not listed); in the data active means activity change below about -50%; inconclusive means about -30% to -50%; inactive means above about -30%;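 also: stimulus is agonist 54-4 at its EC80 concentration; % is scaled to controls: 0 for no effect and ±100 for the full control effect; compound concentration not given in the record; the text of the record puts the active cut at -80%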
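Calcium fluorescence in TRPML1-DL cells induced overnight with Tet: a 110 s read after compound pin addition, then a 110 s antagonist read after challenge with 54-4 at 4 uM final (EC80).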
Starred values were filed as active, the others as inactive; ? = inconclusive; · = not tested or not shown; [ ] = another dose, or the depositor's remark.

Values in the order – TRPML1 agonist	Menin-MLL FL inh	ClpP mod	Sfp PPTase inh	PINK1 modulator	TRPV1 PAM	TRPML1 blocker
1: Cc1cccc(N2CCN(c3ncnc4c3c(-c3ccccc3)cn4-c3ccccc3)CC2C)c1 (configuration not stated)
  51*	·	-3.4%	·	3.6%	·	-26
2: CNS(=O)(=O)c1cccc(C(=O)OCC(=O)N2CC(C)OC(C)C2)c1 (configuration not stated)
  0.6	4.3	·	15%	-1.4%	-7	4
3: COc1ccc(OC)c2c(C)cc(N3CCCCCC3)nc12
  0.1	-2.2	·	-2%	?	-18	5
4: COc1ccc(-c2cc(NC=O)c3ncc(-c4cccc(C(=O)NCCN(C)C)c4)n3c2)c(OC)c1
  -0.4	·	-8.8%	·	-1.2%	·	·
5: C/C(CC(=O)Nc1ccc2c(c1)OCCO2)=N\NC(=O)Cc1ccccc1
  0.3	·	·	12%	3.7%	-3	9
6: O=C(C1CCCN(S(=O)(=O)c2ccc(Br)s2)C1)N1CCCCCC1 (configuration not stated)
  -0.2	0.4	-5.3%	-10%	0.1%	3	-2
7: CCN(CC)C(=O)C1CCN(c2nnc(C)c3c(C)n(-c4ccc(Cl)cc4)nc23)CC1
  0.7	·	-7.1%	·	0.8%	·	21
8: O=C(c1ccc(-c2ccccc2Cl)o1)N1CCN(S(=O)(=O)c2cccs2)CC1
  2.5	·	-24%	·	-1.3%	0	18
9: CCc1nc(SCC(=O)Nc2ccc([N+](=O)[O-])cc2)n[nH]1
  0.7	0.3	-2.6%	13%	1.5%	-3	-24
10: C=C(C)Cc1c(C)c(C#N)c2[nH]c3ccccc3n2c1=O
  0.7	14	·	5%	?	-11	-6
11: Cc1cccc(-c2noc(-c3ccc(F)cc3)n2)c1
  1.3	-0.8	-0.4%	-12%	7.7%[38.3 µM]	1	-16
12: COc1ccccc1N1CCN(S(=O)(=O)CCNC(=O)c2ccccc2Br)CC1
  -0.7	-3.1	-0.3%	12%	2.5%	10	4
13: CC[C@]12c3[nH]c4cc(-c5ccco5)ccc4c3CCN1C(=O)[C@@H](CC(=O)NCCc1ccccn1)C[C@@H]2C(=O)N1CCN(C(=O)c2ccco2)CC1
  -0.5	·	-12%	·	1.0%	·	22
14: O=C(Nc1nnc(-c2ccco2)o1)c1ccc(Br)s1
  -0.7	·	1.6%	·	-0.2%	·	7
15: c1ccc(Cn2nnnc2-c2ccco2)cc1
  -0.5	2.4	-2.0%	16%	3.3%[38.3 µM]	-7	3
16: Nc1c(-c2ccccc2)c(CSc2nc3ccccc3[nH]2)nn1-c1ccc(C(=O)O)cc1
  0.4	2.1	2.2%	25%	-0.7%	8	-12
17: O=C(NCc1ccc(F)cc1)c1ccc2c(c1)nnn2C1CCCC1
  -1.0	·	0.2%	·	2.3%	·	10
18: Cc1cccc(C)c1NC(=S)N(C)CCc1ccccn1
  -0.1	1.0	-2.9%	7%	4.5%	0	-6
19: Cc1cc(S(=O)(=O)NCC(C)C)ccc1OCC(=O)NCC1CCCO1 (configuration not stated)
  -0.4	7.6	3.1%	1%	2.7%	12	17
20: COc1cc(OC)cc(C(=O)Nc2ccccc2C(=O)NC2CC2)c1
  2.1	·	22%	·	9.7%	-7	27
21: O=C1CN(c2ccc(Cl)cc2)C2(CCCCC2)S1
  -0.5	2.1	1.5%	11%	3.6%	-2	5
22: Cc1noc(C)c1CSc1nnc(-c2ccccc2F)n1CCc1ccccc1
  0.5	3.9	?	-11%	-0.3%	-12	-11
23: NC(CC(=O)O)c1ccc(Br)cc1 (configuration not stated)
  0.2	3.1	-2.7%	7%	2.4%	-2	34
24: Cc1ccc(C)c(N(C)C(=O)c2coc(=O)c3ccccc23)c1
  -0.3	3.0	-0.9%	22%	1.0%	-1	20
25: COc1ccccc1C(=O)Nc1ccnn1C1CCN(C(=O)c2ccoc2C)CC1
  -0.1	-4.3	-3.7%	0%	1.6%	-1	61
26: Cc1ccccc1N1CC(C(=O)N2CCc3ccccc32)CC1=O (configuration not stated)
  -0.5	·	1.0%	·	1.2%	21	10
27: OCC[C@H]1C[C@H](O)[C@@H](O)[C@]2(CCCCO2)O1
  -0.5	·	-0.3%	·	0.2%	·	4
28: Cc1ccc(OCC(=O)Nc2nc(-c3ccccn3)cs2)c(C)c1
  2.5	·	0.5%	·	4.9%	2	-7
29: CC(C)(C)OC(=O)N1CCc2nc(N3CCN(c4ncccn4)CC3)ncc2C1
  3.0	·	?	·	3.4%	·	-13
30: Cc1cccc(N2CCN(C(=O)COc3cc4oc(=O)cc(C)c4cc3Cl)CC2)c1C
  0.6	-4.6	-7.3%	1%	-1.1%	8	-8
31: CC1CCN(c2oc(-c3ccc(F)cc3)nc2C#N)CC1
  2.6	3.3	·	-12%	0.7%	0	13
32: COc1ccc(CCNC(=O)c2cc3c(s2)-c2c(C)cccc2OC3)c(OC)c1
  0.9	·	4.8%	·	-1.2%	·	-4
33: O=S(=O)(c1cc(F)ccc1F)N1CCC2(CC1)OCCN2S(=O)(=O)c1ccccc1
  2.3	·	·	·	0.3%	-6	74
34: Nc1[nH]nc2nc3ccccc3cc12
  1.0	-1.5	0.0%	-25%	0.5%	-10	10
35: CC(Sc1nnc(-c2ccco2)n1C)C(=O)NC1CCCC1 (configuration not stated)
  -0.2	·	-1.9%	·	0.9%	12	-2
36: CCOC(=O)CC(=O)CSc1nnc(Cn2c(=O)sc3ccccc32)n1C
  3.0	4.9	-1.4%	19%	5.7%[38.3 µM]	6	11
37: COC(=O)c1nn(-c2ccc(C)cc2)c2nnc(Cc3ccccc3)c(=O)n12
  0.8	0.5	-6.2%	6%	-0.5%	-12	52
38: O=C1C2C3c4ccccc4C(c4ccccc43)C2C(=O)N1c1cccc2cccnc12 (configuration not stated)
  0.8	4.8	-1.4%	2%	0.1%	0	18
39: CC(C)CCOc1ccc(C2CC(=O)N(C)C2=O)cc1 (configuration not stated)
  0.3	0.3	0.0%	4%	-0.3%	-10	38
40: O=C(O)CNc1nc(-c2ccccc2)c2cc([N+](=O)[O-])ccc2n1
  0.9	-1.0	1.1%	6.3µM*	0.0%	-18	-9

A second format for some results above:
nr	Structure	TRPML1 agonist	Menin-MLL FL inh	ClpP mod	Sfp PPTase inh	PINK1 modulator	TRPV1 PAM	TRPML1 blocker
12	COc1ccccc1N1CCN(S(=O)(=O)CCNC(=O)c2ccccc2Br)CC1	-0.7	-3.1	-0.3%	12%	2.5%	10	4
13	CC[C@]12c3[nH]c4cc(-c5ccco5)ccc4c3CCN1C(=O)[C@@H](CC(=O)NCCc1ccccn1)C[C@@H]2C(=O)N1CCN(C(=O)c2ccco2)CC1	-0.5	·	-12%	·	1.0%	·	22
14	O=C(Nc1nnc(-c2ccco2)o1)c1ccc(Br)s1	-0.7	·	1.6%	·	-0.2%	·	7
15	c1ccc(Cn2nnnc2-c2ccco2)cc1	-0.5	2.4	-2.0%	16%	3.3%[38.3 µM]	-7	3

Further structures
41	CN1CCN(C(=O)c2ccc3c(c2)NC(=O)C(N2CCOCC2)S3)CC1 (configuration not stated)
42	Cc1ccc(-n2ncc(C(=O)N3CCN(c4ccc(Cl)cc4)CC3)c2C2CCN(C(=O)OC(C)(C)C)CC2)c(C)c1
43	CCCOc1ccc(C2/C(=C(\O)c3c(C)[nH]c(C(=O)OC)c3C)C(=O)C(=O)N2CCN(C)C)cc1 (configuration not stated)
44	O=S(=O)(Cc1ccc(Cl)cc1)NCc1ccc2c(c1)OCO2
45	COC(=O)c1sc(N2C(=O)C(O)=C(C(=O)c3ccc(C)o3)C2c2ccc(OC)c(OC)c2)nc1C (configuration not stated)
46	O=C(Nc1cc(C(F)(F)F)ccc1Cl)c1cnn(-c2ccccc2)c1-n1cccc1
47	CCOc1ccc(-c2[nH]ncc2-c2ccccc2)c(O)c1
48	COc1ccc(N2CC(C(=O)NC3CCCCC3)CC2=O)cc1 (configuration not stated)

assay / entry	41	42	43	44	45	46	47	48
TRPML1 agonist	-0.3	-0.1	-0.4	0.8	0.9	2.8	-1.0	-0.3
Menin-MLL FL inh	-3.5	·	-1.4	·	·	·	·	-5.3
ClpP mod	2.0%	-1.1%	69%	1.7%	0.8%	-17%	-19%	·
Sfp PPTase inh	10%	·	-12%	14%	?	·	10%	3%
PINK1 modulator	-0.8%	0.0%	-2.7%	0.6%	1.4%	6.0%	5.0%	0.3%
TRPV1 PAM	-12	·	9	-18	9	·	-3	-3
TRPML1 blocker	4	-1	25	6	18	55	2	-5

49	Cc1cc(NC(=O)c2ccc3sc([C@@H]4O[C@H](CO)[C@H](O)[C@H](O)[C@H]4O)nc3c2)n(C)n1
50	Cc1ccc2[nH]c3c(=S)nc[nH]c3c2c1
51	CC(C)c1ccc(NC(=S)NNC(=O)c2cccnc2)cc1
52	CCOC(=O)C(C)Sc1cnccn1 (configuration not stated)
53	CNc1cc([N+](=O)[O-])ccc1N/C=C/C(=O)c1cccs1
54	CCCOC(=O)CSc1nnc2ccc3ccccc3n12
55	CCOC(=S)SCc1cn2ccccc2n1
56	CCOc1ccc(-n2c(N)c(C(=O)NCc3ccco3)sc2=S)cc1
57	Fc1ccc(-c2nc3ccc(Cl)cn3c2Cc2cccc(F)c2)cc1
58	CCOC(=O)C1CCCN(S(=O)(=O)Cc2ccccc2)C1 (configuration not stated)
59	O=C(O)c1cc(Cl)nc2ccccc12

assay / entry	49	50	51	52	53	54	55	56	57	58	59
TRPML1 agonist	-0.4	0.3	0.7	0.3	0.2	0.6	-0.4	-0.9	1.4	0.0	·
Menin-MLL FL inh	·	1.4	-11	-8.5	4.1	·	?	6.9	·	1.2	-2.4
ClpP mod	0.4%	?	-1.1%	-3.8%	0.9%	-11%	·	-0.8%	?	-2.3%	-3.5%
Sfp PPTase inh	·	3%	21%	1%	8%	·	50µM*	13µM*	·	-26%	2%
PINK1 modulator	0.6%	3.0%	1.3%	-0.7%	8.0%	1.6%	-0.3%	0.3%	?	0.2%[38.3 µM]	0.3%
TRPV1 PAM	·	5	-3	-1	12	·	-8	22	·	3	·
TRPML1 blocker	·	13	3	28	9	-16	12	1	22	-7	·
